Screening results: PubChem, National Center for Advancing Translational Sciences (NCATS)
2A StopGo – High Throughput Screening for Foot and Mouth Disease Virus Antivirals; human cells with a luciferase reporter of 2A StopGo recoding; control for the full effect not named in the record; Potency, µM (highest dose often 57.9 µM), without a hit: at the highest dose signal change, negative = less light; 410,000 tested, 1.2% active; AID 1159524, 2015; active = well fitted falling curve with a large enough effect; inconclusive = small, poorly fitted or top-dose-only effect; inactive = no such curve, though single readings can be large or run the other way; tested in HEK293T cells; also: % is scaled to controls: 0 for no effect and ±100 for the full control effect; nearly all actives have a fitted effect of over 45% in size; luciferase light after 4 h
SARS PLpro yeast – qHTS of Yeast-based Assay for SARS-CoV PLP; AID 485353, 2010; 330,000 tested, 0.19% active; Potency, µM (highest dose often 32.9 µM), for inactives: top-dose activity, positive = growth rescue; S. cerevisiae expressing SARS-CoV PLpro, growth rescue; control for the full effect not named in the record; active means well fitted rising curve with a large enough effect; inconclusive means small, poorly fitted or top-dose-only effect; inactive means no such curve, though single readings can be large or run the other way; also: 0% is about no effect; nearly all actives have a fitted effect of over 55% in size; growth read by luminescence after 48 h
Cruzain noTriton – qHTS Assay for Promiscuous and Specific Inhibitors of Cruzain (without detergent); Cruzipain (Trypanosoma cruzi), P25779; purified cruzain, Z-FR-AMC fluorescence, no detergent; Potency, µM, without a hit: max response, negative = inhibition, usual class: inhibitors; 200,000 tested, 2.3% active;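 also: plate controls were enzyme without inhibitor for no effect and buffer without enzyme for full effect; nearly all actives have a fitted effect of over 40% in size; top concentration of the series not given in the record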
Target sequence (P25779 123-467 limits assumed): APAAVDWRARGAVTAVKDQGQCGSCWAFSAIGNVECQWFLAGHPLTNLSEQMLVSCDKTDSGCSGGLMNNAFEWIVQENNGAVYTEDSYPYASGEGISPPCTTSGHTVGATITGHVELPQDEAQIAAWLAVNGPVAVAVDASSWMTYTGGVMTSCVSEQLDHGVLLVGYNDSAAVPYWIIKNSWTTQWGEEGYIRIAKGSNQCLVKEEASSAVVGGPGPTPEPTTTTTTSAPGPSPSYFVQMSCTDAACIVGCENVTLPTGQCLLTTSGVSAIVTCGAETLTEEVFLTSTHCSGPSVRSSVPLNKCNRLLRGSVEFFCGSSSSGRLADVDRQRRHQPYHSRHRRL
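Purified cruzain at 1.5 nM, pre-incubated 15 min with compound at room temperature in 100 mM sodium acetate pH 5.5, 5 mM DTT, 0.00005% Triton X-100. Reaction started with 2 uM Z-FR-AMC; AMC fluorescence increase over 60 s gives rate.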
Cruzain Triton – qHTS Assay for Promiscuous and Specific Inhibitors of Cruzain (with detergent) | purified cruzain, Z-FR-AMC fluorescence, 0.01% Triton | 200,000 tested, 0.43% active | Potency, µM, inactives show max response, negative = inhibition, hits mostly inhibitors | Cruzipain (Trypanosoma cruzi), P25779 | AID 1478, 2009;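 also: plate controls were neutral wells for no effect and buffer without enzyme for full effect; nearly all actives have a fitted effect of over 40% in size; top concentration of the series not given in the record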
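In this qHTS format, compounds are incubated with 1.5 nM cruzain for 15 min at room temperature before 2 uM Z-FR-AMC is added. Release of AMC is followed at 360/450 nm, and progress is taken as the 60 s fluorescence difference.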
RE007 growth inh – qHTS Assay for Inhibitors of the HIV-1 protein Vpr | S. pombe RE007 Vpr strain, BacTiter-Glo ATP luminescence, 24 h; control for the full effect not named in the record | Potency, µM (doses to about 92.2 µM), without a hit: at the top dose activity change, negative = less growth | 360,000 tested, 0.21% active; active = well fitted falling curve with a large enough effect; inconclusive = small, poorly fitted or top-dose-only effect; inactive = no such curve, though single readings can be large or run the other way;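 also: % is scaled to controls: 0 for no effect and ±100 for the full control effect; nearly all actives have a fitted effect of over 50% in size; the assay follows cell death caused by Vpr and the record does not say whether a fall means rescue or toxicity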
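Fission yeast RE007 carrying one integrated HIV-1 vpr copy, seeded at OD 0.01 in PMG+AL medium with 23 nL pinned compound. Grown 24 h at 30 degrees; viability read by BacTiter-Glo luminescence after 5 min.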
Marburg entry inh – qHTS for inhibitors of binding or entry into cells for Marburg Virus. Potency, µM (doses to about 37.8 µM), for the others: top-dose activity change, negative = inhibition, hits mostly inhibitors. 300,000 tested, 1.8% active. Marburg virus pseudotyped entry inhibition, cell reporter; control for the full effect not named in the record; about a third of the inactives were read at about 46 µM. AID 540276, 2011; active = well fitted inhibition curve with a large enough effect; inconclusive = small, poorly fitted or top-dose-only effect, or effect the other way; inactive = flat fitted curve, though single readings scatter; tested in HEK293 cells; about a fifth of its hits are not listed in these tables; also: % is scaled to controls: 0 for no effect and ±100 for the full control effect; luciferase read-out
NS1 function inh – qHTS Assay for Inhibitors of Influenza NS1 Protein Function; S. cerevisiae slowed by influenza A NS1, growth recovery by OD600; AID 2326, 2010; 270,000 tested, 0.4% active; Potency, µM (top dose mostly 46.1 µM), inactives show top-dose activity, positive = more growth; active means well fitted rising curve with a large enough effect; inconclusive means small, poorly fitted or top-dose-only effect; inactive means no such curve, though single readings can be large or run the other way; also: nearly all actives have a fitted effect of over 50% in size
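A cell-based growth assay was used: compounds that relieve NS1-induced slow growth of budding yeast raise OD600. Assay medium was yeast nitrogen base with ammonium sulphate and -URA supplement, pH 6.0, with 2% galactose.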
Lassa entry inh – qHTS for Inhibitors of binding or entry into cells for Lassa Virus | Potency, µM (highest dose often 37.9 µM), for inactives: at the highest dose activity change, negative = inhibition, usual class: inhibitors | AID 540256, 2011 | 300,000 tested, 1.2% active | Lassa virus pseudotype entry inhibition, cell reporter; control for the full effect not named in the record; active means well fitted inhibition curve with a large enough effect; inconclusive means small, poorly fitted or top-dose-only effect, or effect the other way; inactive means flat fitted curve, though single readings scatter; tested in HEK293 cells; also: % is scaled to controls: 0 for no effect and ±100 for the full control effect; nearly all actives have a fitted effect of over 50% in size; luciferase read-out
* = called active by the depositor; ? = inconclusive; / = not tested or not shown; & = joins results of further samples; [ ] = another dose, or the depositor's remark. Unless noted, calls follow the shape of the dose curve; as a rule, active = well fitted curve in the direction sought with a large enough effect; inconclusive = small, poorly fitted or top-dose-only effect, or another doubt; inactive = no such curve, though single readings can be large; an effect the other way counts as inactive or inconclusive. Potency is read from the fitted curve at half-maximal effect.

SMILES	2A StopGo	SARS PLpro yeast	Cruzain noTriton	Cruzain Triton	RE007 growth inh	Marburg entry inh	NS1 function inh	Lassa entry inh
CC(=O)Nc1n[nH]c(S(=O)(=O)Cc2ccc(Cl)cc2Cl)n1	0%	0%	-5%	0.0%	10%	-2%	2%	6%
CC#CC[N+](C)(C)CCCCCCCCCCCC	13µM*	-61%	9%	2.0%	?	10µM*	-58%	?
CCc1nnc(NC(=O)CN2CCN(Cc3cccc(Cl)c3)CC2)s1	-23%	6%	/	/	-4%	?	19%	?
Cc1cc(C)cc(NC(=O)NC(C)C2CCCO2)c1 (stereo not given)	-2%	1%	/	/	2%	7%[46.1 µM]	4%	27%
CC(=O)N1CCc2cc(CNS(=O)(=O)c3ccc(Br)s3)ccc21	24%	/	-10%	-1.0%	/	/	/	-16%[46.1 µM]
O=S(=O)(Nc1ccc(-c2nc3ccccc3o2)cc1)c1ccccc1	47%[activator]	-24%	-5%	-7.7%	5%	23%	-62%	20%
CN(C(=O)COC(=O)c1cccnc1Nc1cccc(C(F)(F)F)c1)C1CCS(=O)(=O)C1 (stereo not given)	-6%	7%	?	-9.7%	-18%	-10%	-5%	-1%
S=C(NCc1ccccc1)NCc1cccc(CNC(=S)NCc2ccccc2)c1	11%	?	6%	-7.6%	-3%	?	-5%	?
CC1(C)C2CCC1(CS(=O)(=O)NCc1ccc(C(F)(F)F)cc1)C(=O)C2 (stereo not given)	-6%	-1%	/	/	4%	?	7%	-29%[46.1 µM]
Cc1ccc(S(=O)(=O)CC(O)COc2ccc(C#N)cc2)cc1 (stereo not given)	-8%	2%	/	/	4%	-16%[46.1 µM]	-4%	-2%
O=C(NCCO)C(=O)Nc1c2c(nn1-c1ccc(F)cc1)CSC2	-10%	/	2%	-7.0%	/	/	/	-11%[46.1 µM]
COc1ccc(C(=O)NCCc2ccccn2)cc1S(=O)(=O)Nc1ccc(Br)cc1	62%[activator]	1%	/	/	11%	-15%	/	?
CCc1nc(C)c(-c2ccccc2)c(=O)[nH]1	/	?	4%	-1.8%	0%	4%	-7%	-2%
CNS(=O)(=O)c1cccc(C(=O)OCC(=O)Nc2sc3c(c2C#N)CCCCC3)c1	26%	-1%	1%	-12%	7%	21%[46.1 µM]	2%	-15%
Cc1cc(Oc2ccc(C#N)cc2)nc(NCc2ccccc2)n1	0%	6%	4%	-4.7%	-28%	?	7%	-27%
Cn1c(=O)cc(OCCCC(=O)Nc2ccc(F)cc2)c2ccccc21	-4%	/	?	1.9%	/	-2%[46.1 µM]	/	17%[46.1 µM]
O=C1CN(C(=O)Nc2ccccc2C(F)(F)F)C(c2ccccc2)c2c(sc3c2CCCC3)N1 (stereo not given)	-22%	/	-9%	-3.1%	/	-2%[46.1 µM]	/	-21%[46.1 µM]
Cc1sc(NC(=O)CCC(=O)O)c(C#N)c1C	-1%	0%	/	/	5%	8%	/	3%
Cc1cc(NC(=O)Cn2nc3c(cc2=O)CCCC3)ccc1Br	-20%	-8%	-21%	-2.5%	-18%	19%	-34%	-16%
O=C(COC(=O)c1ccccc1F)c1ccc(-n2nncc2-c2ccco2)cc1	-23%	9%	-9%	-7.0%	-4%	5%	-22%	-9%
O=c1oc2c3c(nn2c2ccccc12)CCCC3	/	-3%	-4%	-3.4%	-23%	18%	-47%	4%
CCOC(=O)c1c(CN2CCN(C)CC2)n(-c2ccccc2)c2cc(Br)c(O)cc12	-2%	1%	/	/	-8%	/	4%	/
COc1ccc(N2CCN(C(=O)CCc3nnc4ccc(N5CCCC5)nn34)CC2)cc1	-5%	-1%	/	/	-3%	/	16%	/
COc1cccc(-n2nnnc2SCC(=O)N2CCCc3ccccc32)c1	-1%	-17%	-8%	-8.0%	4%	-3%	-84%	?
Cc1cc(C)cc(N2C(=O)CC(N(C(=O)c3ccco3)c3cc(C)cc(C)c3)C2=O)c1 (stereo not given)	-6%	-5%	16%	-1.4%	-9%	-5%	2%	0%
CCCCn1cnc2c(SCc3ccccc3Cl)nc(N)nc21	4%	/	/	/	5%	?	/	-23%[46.1 µM]
O=C(NC1CCC(O)CC1)c1ccc(Br)o1 (stereo not given)	2%	4.5µM*	/	/	5%	-27%	/	?
CC(C)OCC(O)CSc1ccccn1 (stereo not given)	14%	2%	16%	-0.6%	-10%	17%	13%	2%
COc1ccc(Oc2ccc(S(=O)(=O)N3CCCCC3)cc2S(=O)(=O)N2CCCCC2)cc1	20%	1%	/	/	-8%	23%&23%[46.1 µM]	-2%&4%	-13%
Cc1oc(-c2ccccc2F)nc1CS(=O)CC(=O)NC1CC1 (stereo not given)	4%	-5%	/	/	-9%	7%[46.1 µM]	7%	15%[46.1 µM]
COc1ccc(Br)cc1C(=O)CCC(=O)OCC(=O)Nc1cc(C(N)=O)cc(C(N)=O)c1	-16%	-4%	/	/	1%	0%[46.1 µM]	/	-17%
CN1C(=O)[C@H]2[C@@H](C3CC3)N3C(=O)CN(CCO)C(=O)[C@@]3(Cc3ccccc3)[C@H]2C1=O	-4%	-5%	/	/	0%	/	-26%	/
O=C(CC1(C(=O)O)CCCC1)N1CCOCC1	-8%	-2%	-1%	-3.5%	0%[3.69 µM]	9%	14%	8%
CS(=O)(=O)c1ccc(N2CCOCC2)c(S(C)(=O)=O)c1	4%	3%	-13%	3.6%	4%	1%	-2%	-3%
Cc1nn(-c2ccccc2)c2nc(C(F)(F)F)[nH]c(=O)c12	-16%	17%	-11%	-14%	7%	-2%	-15%	/
CC(C)(O)C#Cc1ccc(CN2CCN(Cc3ccsc3)C(CCO)C2)cc1 (stereo not given)	-17%	0%	/	/	-21%	20%[46.1 µM]	1%	2%[46.1 µM]
CC(C)(CNC(=O)c1ccc(-c2ccccc2Cl)o1)N1CCOCC1	47%[activator]	-1%	/	/	-17%	?	/	23%
COc1ccc(C(=O)Oc2ccc(F)cc2C(=O)/C=C/c2ccc(OC)c(OC)c2)cc1	40µM*	19%	23%	-6.4%	6%	-14%	32%	?
O=C(c1ccc2c3c(cccc13)CC2)C1CCCN(C(=O)c2cc[n+]([O-])cc2)C1 (stereo not given)	0%	-2%	/	/	4%	/	0%	/
CCc1ccccc1NC(=O)N1C[C@H]2C[C@@H](C1)c1cccc(=O)n1C2	-14%	12%	/	/	-2%	/	2%	/
O=C(Nc1ccccc1C(=O)N/N=C/c1ccc(O)cc1)c1ccccc1	-57%	-4%	/	/	?	/	3%	/
Cc1ccc(-c2nnn(CCC(=O)NC3CCCC3)n2)cc1	/	3%	7%	5.3%	14%	21%	-20%	0%
O=C(c1cc(C(=O)NCCc2ccccc2)c(=O)n(CCc2ccccc2)c1)c1cc(Cl)ccc1O	-7%	-2%	?	-5.2%	3%	?	17%	?
Cc1cc(C)c(C(=O)C(C)OC(=O)c2ccc(Cl)nc2)cc1C (stereo not given)	-23%	-9%	/	/	1%	-21%	-43%	6%
Cc1c(Br)c(C(=O)N2CCc3ccccc32)nn1C	0%	5%	6%	-3.4%	4%	-32%	-1%	7%
CC(=O)Nc1ccc(-c2csc(NC(=O)c3ccc(C)o3)n2)cc1	0%	-2%	-1%	-11%	10%	-1%	0%	3%
COc1ccc(CC(=O)OCC(=O)N2CCN(S(=O)(=O)c3ccc(C)cc3C)CC2)cc1	?	-4%	/	/	-23%	?	/	-10%
Cc1[nH]c2ccccc2c1C(=O)C(=O)NC1CC(=O)N(c2ccc(F)cc2)C1 (stereo not given)	-19%	2%	/	/	-17%	?	/	-4%
COCCCNC(=O)c1cc2cc(S(=O)(=O)N3CCCCC3)ccc2n1C	-16%	/	-2%	-1.0%	/	/	/	-16%[46.1 µM]
O=S(=O)(c1ccc(Cl)s1)N1CCCc2cccc(O)c21	76%[activator]	-28%	-2%	-1.0%	-27%	10%	-77%	18%
Cc1nc2ccccc2nc1OCC(=O)Nc1cc(C(F)(F)F)ccc1N1CCOCC1	0%	-4%	?	1.4%	16%	3%&14%	-10%	2%
C[C@H](NC(=O)c1nc[nH]c1C(=O)NCC(=O)OCc1ccccc1)C(=O)OC(C)(C)C	-28%	2%	/	/	14%	/	-9%	/
Cn1c(=O)oc2cc(S(=O)(=O)NCCN3CCCCCC3)ccc21	-2%	3%	0%	4.7%	3%	17%	0%	-11%
O=C1COc2ccc(S(=O)(=O)N3CCCC3)cc2N1	10%	-2%	/	/	-3%	-16%[46.1 µM]	20%	9%[46.1 µM]
COc1ccc(OCC(=O)O/N=C(\N)Cc2ccc(Cl)cc2)cc1	1%	-17%	-2%	0.8%	?	-20%[46.1 µM]	-60%	2%
Nc1nc(NCc2ccccc2)n(-c2ccccc2)n1	9%	0%	/	/	8%	?	0%	?
O=C(COC(=O)c1ccc2c(c1)OCCO2)NC1CCCCC1	17%	-7%	/	/	13%	9%	/	-1%
O=C(/C=C/c1ccc([N+](=O)[O-])cc1)Nc1cccc(S(=O)(=O)NC2=NCCCCC2)c1	?	1%	/	/	4%	?	/	?
Cc1ccc(Cn2cc(C=O)c(-c3ccc(C)cc3)n2)cc1	21%	-38%	-4%	-6.0%	16%	?	-16%	?
COC(=O)c1cc2occc2n1Cc1nc(-c2cccc(Cl)c2)oc1C	-7%&-24%	-13%	1%&9%	-2.5%&-4.5%	2%	8%[46.1 µM]	-2%	-9%
COC(=O)c1cc(C)nc2c1C(=O)C(=O)C=C2N1CCOCC1	3.5µM*	11%	/	/	-2%	?	4%	?
